VDR inhibitor: inhibitors of human vitamin D receptor; P11473; VDR-SRC2-3 peptide fluorescence polarization, 2 h; actives 0.93% (n = 400,000); Potency, µM, for the others: max response, negative = inhibition, most hits filed as inhibitors; active = well fitted inhibition curve with a large enough effect; inconclusive = small, poorly fitted or top-dose-only effect, or another doubt; inactive = no such curve, though single readings can be large or run the other way; note: series mostly up to about 120 µM
Target sequence (P11473 whole entry, looked up): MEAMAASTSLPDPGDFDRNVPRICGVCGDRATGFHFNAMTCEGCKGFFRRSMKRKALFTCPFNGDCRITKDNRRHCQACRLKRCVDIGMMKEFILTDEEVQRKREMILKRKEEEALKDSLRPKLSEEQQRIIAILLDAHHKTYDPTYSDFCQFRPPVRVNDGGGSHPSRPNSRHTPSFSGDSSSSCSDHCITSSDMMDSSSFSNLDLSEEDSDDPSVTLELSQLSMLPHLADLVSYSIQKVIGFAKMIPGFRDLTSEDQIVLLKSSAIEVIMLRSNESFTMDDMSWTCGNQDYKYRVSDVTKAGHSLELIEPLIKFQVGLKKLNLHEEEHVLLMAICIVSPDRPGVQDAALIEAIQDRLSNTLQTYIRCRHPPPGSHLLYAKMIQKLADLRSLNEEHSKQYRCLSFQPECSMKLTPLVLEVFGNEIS
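The screen uses fluorescence polarization to detect compounds that interfere with recruitment of the SRC2-3 coactivator peptide to VDR; plates are read after 2 h at room temperature.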
* hit, by the source's call; ? = inconclusive; & = joins results of further samples. % is set by controls: 0 for no effect and ±100 for the full control effect; potency is the fitted concentration of half-maximal effect. Some of the compounds tested; rates above refer to the full screens.

SMILES	VDR inhibitor
CCOc1cc(Cl)c(S(=O)(=O)n2ccnc2)cc1Cl	-4.4%
Cc1ccc(NC(=O)c2noc3c2CCC3)cc1C	-11.4%
CC1=C(C(=O)Nc2ccccc2Cl)C(c2cccc(O)c2)n2ncnc2N1 (configuration not stated)	-3.7%
O=c1nc(NO)ccn1C1CCCO1 (configuration not stated)	-9.3%
COc1ccc(S(=O)(=O)N2CCN(c3ccc(F)cc3)CC2)cc1C(=O)N1CCOCC1	-15.1%
Cc1ccc(NC(=O)Nc2c(C)[nH]c(=O)[nH]c2=O)cc1Cl	1.0%
Cc1ccc2c(c1)c1c(c(=O)n(-c3ccccc3C)c(=O)n1CC(=O)N1CCCC1)n2C	0.4%
O=C(Cn1cccc1C(=O)c1ccccc1)NCc1ccccc1	2.8%
CCC(=O)Nc1ccc2nc(C)n(CC(=O)Nc3ccccc3)c(=O)c2c1	-19.1%
CC(C)NC(=O)c1cnc(Sc2ncc(C(F)(F)F)cc2Cl)n1C	14.2%
COc1ccc(C(=O)COC(=O)c2ccc3c(c2)NC(=O)CS3)c(OC)c1	12.8%
CC(C)CC(NC(=O)CNC(=O)C1O[C@@H]2OC(C)(C)O[C@@H]2[C@H]2OC(C)(C)O[C@@H]12)C(=O)O (some centres not stated)	-12.4%

Reformatted with values ahead of the structure: part of the list above
VDR inhibitor	smiles
-15.1%	COc1ccc(S(=O)(=O)N2CCN(c3ccc(F)cc3)CC2)cc1C(=O)N1CCOCC1
2.8%	O=C(Cn1cccc1C(=O)c1ccccc1)NCc1ccccc1

(cont.)
SMILES	VDR inhibitor
CCOc1ccccc1NC(=O)NCc1ccc(F)cc1	4.5%
COc1ccccc1CNC(=O)c1cnn(-c2ccc(F)cc2F)c1C1CCN(C(=O)OC(C)(C)C)CC1	3.5%
CCc1cc(C(=O)Nc2cnn(Cc3ccc(F)cc3)c2)no1	-14.5%
O=C(Cc1cccs1)NCc1ccccc1	-5.4%
COc1ccc(C2C(C(=O)Nc3cccnc3)=C(C)Nc3nc(SCc4ccccc4)nn32)cc1 (configuration not stated)	-28.7%
Cc1sc2nc3c(C(=O)N4CCCC4)cc(C(=O)c4ccccc4O)cn3c(=O)c2c1C	-8.0%
Cc1nc2ncnn2c(C)c1Cc1cccc(F)c1	-10.1%
CCOC(=O)CSc1nnc(-c2cccc(Br)c2)o1	8.7%
COC(=O)CNC(=O)COC(=O)c1cc(F)c(F)cc1Cl	-2.5%
CC(=O)c1cccc(NC(=O)COc2cc3oc(=O)c(CC(C)O)c(C)c3cc2Cl)c1 (configuration not stated)	-11.2%
COc1ccc(NC(=O)CSCC(=O)N2c3ccccc3CCc3ccccc32)cc1	-11.5%
Cc1cccnc1NC(=O)C(C)N1C(=O)c2ccccc2C1=O (configuration not stated)	-9.7%
O=C(c1ccncc1)N1CCC2(CC1)CN(C(c1ccccc1)c1ccccc1)C2	0.8%
O=C(Nc1ccccc1F)C1CCCN1S(=O)(=O)c1cccc2nsnc12 (configuration not stated)	-9.5%
CCC1CN(C(=O)Nc2ccccc2C(F)(F)F)c2ccccc2O1 (configuration not stated)	5.9%
Cc1ccc(C2NC(=O)c3ccccc3O2)cc1 (configuration not stated)	-13.3%
COc1cccc([C@@H]2Oc3ccc(Br)cc3C[C@H]2O)c1	-5.1%
O=C(c1ccncc1)N1CCN(S(=O)(=O)c2cc(C(F)(F)F)cc(C(F)(F)F)c2)CC1	-7.1%
O=c1cc(NC2CCCCC2)c2ccccc2o1	-9.8%
O=c1c(-c2ccccc2)nc2cnc(Oc3ccccc3)nc2n1C1CC1	3.2%
O=C(c1ccco1)c1cn(CC(=O)N2CCCCC2)c2ccccc12	10.2%
O=C(c1ccco1)N1CCN(Cc2cc(=O)c(OCc3ccccc3F)co2)CC1	-16.2%
CC(C)(C)c1ccc(C(=O)CSc2ncn[nH]2)cc1	?
COc1cccc(C(=O)NC2CCCc3c2cnn3-c2cc(C)cc(C)c2)c1 (configuration not stated)	7.2%
O=C(Cn1c(=O)n(-c2ccc(Cl)cc2)c(=O)c2c3c(sc21)CCCCC3)Nc1cccc(Cl)c1	-6.0%
COc1cccc(-c2nc(C(N)=O)c3[nH]c(=O)n(-c4ccccc4)c3n2)c1OC	-2.8%
O=C(Nc1ccc2nc(SCC(=O)N3CCOCC3)sc2c1)c1cccc(F)c1	17.5%
Cc1ccc(NC(=O)CS(=O)CC(=O)N(CC(=O)NC2CCCC2)c2cc(C)ccc2C)cc1 (configuration not stated)	-2.6%
O=C(Nc1ccccc1)C1CC2CCC1C2 (configuration not stated)	-10.2%
C=CCNc1nnc(SCC(=O)N2CCCCC2)c2ccccc12	6.6%
Cc1ccc(NS(=O)(=O)c2cccc(C(=O)NCCCN3CCOCC3)c2)cc1	-3.0%
O=C(c1cccs1)N(CC1CCCO1)c1nc(-c2ccccc2)cs1 (configuration not stated)	10.5%
Cn1nnc2cc(C(=O)NC(C)(C)C)ccc21	3.1%
CC1C(=O)NC(=O)C1c1ccccc1 (configuration not stated)	6.2%
NC(=O)c1cccc2ccccc12	11.4%
Cc1cccc2c3c([nH]c12)C(=O)CC(C)(C)S3	-2.5%
O=C(CC1NCCc2ccccc21)Nc1ccc(Cl)cc1 (configuration not stated)	4.2%
COc1ccccc1N1CCN(C(=O)Cc2c(C(=O)O)[nH]c3ccc(Cl)cc23)CC1	9.8%
C[C@H]1CCC(=O)N([C@H](COc2ccccc2)Cc2ccccc2)CC1	-9.8%
Cc1ccccc1CC(=O)N1CCN(S(=O)(=O)c2ccc(Cl)s2)CC1	-17.6%
O=C(CSc1nc(=O)n(Cc2ccncc2)c2c1CCC2)Nc1ccc(F)cc1F	7.7%
COc1ccccc1C(=O)N1c2ncnn2C2(CCCCC2)[C@@H]2CCCC[C@@H]21	9.4%
COc1ccc(NS(=O)(=O)c2cc(NC(=O)c3ccc(=O)[nH]c3)ccc2N2CCCC2)cc1	13.0%
COc1cc(OC)c(C(=O)OCC(=O)NC23CC4CC(CC(C4)C2)C3)cc1OC	-6.6%
COc1ccc(-n2c(N)cc(=O)[nH]c2=O)cc1	4.0%
O=C1C=C(c2ccc3[nH]ccc3c2)C[C@@H](c2ccc(F)cc2)C1	-5.5%
CC(C)C(NC(=O)c1ccccc1F)C(=O)NCCc1ccccn1 (configuration not stated)	11.1%
O=C(NCCc1ccccc1)C1=CCN(S(=O)(=O)c2ccccc2)CC1	9.4%
C=CCC[C@H](Cc1ccc(F)cc1)C(=O)OC[C@H](C)NC(=O)[C@@H](CC=C)CC(=O)N[C@H](CO)Cc1ccccc1	2.3%
O=C(NCCCn1ccnc1)/C(=C\c1ccc(Br)cc1)NC(=O)c1ccccc1	?
Cn1c(=O)c2c(ncn2CC(=O)Nc2cccc(S(=O)(=O)Nc3ccccc3F)c2)n(C)c1=O	-19.7%
Nc1ccc(C=C2C=Cc3ccccc32)cc1	8.1%
CCn1c(=O)c2sccc2n2c(CCCC(=O)NC3CCN(Cc4ccccc4)CC3)nnc12	-17.7%
COC(CNC(=O)c1cc(-c2ccncc2)nc2ccc(S(=O)(=O)N3CCOCC3)cc12)OC	-12.0%
O=C(O)c1ccc(NC(=O)c2cn(-c3ccccc3)nc2-c2ccccc2)cc1	-14.1%
CSc1ccc(CCNC(=O)c2ccc(CS(=O)Cc3ccc(Cl)cc3)o2)cc1 (configuration not stated)	3.5%&6.4%
Fc1ccc(Br)cc1C1C=C(c2ccc(Br)s2)Nc2ncnn21 (configuration not stated)	0.0%
O=C(COC(=O)C1CC1)Nc1ccc(S(=O)(=O)N2CCOCC2)cc1	-15.0%
COc1ccc(/C=N/NC(=O)c2c(C)nnn2-c2nonc2N)cc1OC	10.9%
Cc1cc2sc3nc(=O)n(-c4ccccc4)c(=O)n3c2cc1C	15.3%

Carrying on.
SMILES	VDR inhibitor
c1csc(-c2csc3nc(CN4CCOCC4)nc(NCc4ccc5c(c4)OCO5)c23)c1	9.2%
CC(=O)Nc1ccc(S(=O)(=O)NNC(=O)c2ccc(C)cc2)cc1	10.7%
CN(C)CCCN(C(=O)c1ccc(S(=O)(=O)N2CCc3ccccc32)cc1)c1nc2c(Cl)cccc2s1	-0.7%
CC(C)(C)OC(=O)NCCCCCC(=O)N/N=C/c1coc2ccccc2c1=O	?
CNC(=O)C(=O)Nc1c(C)cc(C)cc1C	-7.5%
COc1ccc(C(=O)NNC(=O)C(=O)NC2CCCCC2)cc1	26.9%
CC(C)[C@H](NC(=O)N1CCn2c1nc1ccccc12)C(=O)NCCc1ccccc1	6.5%
CCOc1ccc(CN2CCc3nc(Nc4ccc5c(c4)OCCO5)ncc3C2)cc1	3.9%
Cc1ccc2c(=O)cc(C(=O)Nc3c(C)n(C)n(-c4ccccc4)c3=O)oc2c1C	14.3%
Cc1nn(Cc2ccccc2Cl)c(C)c1NC(=O)Cn1nc([N+](=O)[O-])c(Cl)c1C	9.9%
CCc1cc2cc(C)c(C)cc2nc1SCC(=O)NNC(=O)c1ccco1	-3.0%
CCc1cc2ccccc2nc1SCC(=O)N1CCN(C(=O)c2ccco2)CC1	2.0%
CC(C)CCN(CCC(C)C)C(CO)(CO)CO	11.1%
CCOC(=O)c1cc2c(=O)n3cccc(C)c3nc2n(CCOC)c1=NC(C)=O	0.8%
Cc1ccc(CN2CCN(/N=C/c3ccc(C)s3)CC2)cc1	1.8%
Cc1ccccc1-c1ccccc1N	21.0%
COC(=O)c1ccc(NC(=O)C2CCCN2S(=O)(=O)c2ccc(OC)cc2)cc1 (configuration not stated)	-4.9%
Cc1c(C)n(Cc2ccc(F)cc2)c2ccc(C(=O)N3CCN(c4ccc(Cl)cc4)CC3)cc12	18.2%
O=C(NCc1n[nH]c(=S)n1-c1cccc(Cl)c1)c1ccc(S(=O)(=O)N2CCCCC2)cc1	3.4%
COc1cc(CNCCc2ccccc2)cc(Cl)c1OCc1ccccc1	-7.0%
CCCCn1c(N)c(N(CCOC)C(=O)c2cc(-c3ccco3)nc3ccccc23)c(=O)[nH]c1=O	-10.4%
Cc1cccc(C)c1Nc1c(-c2ccsc2)nc2ccccn12	-2.8%
c1ccc(COc2cccc(CNCc3ccccn3)c2)cc1	-1.7%
CC(=O)Nc1nc(NCc2ccccc2Cl)n(-c2ccccc2)n1	-4.6%
CCN1CCN(CC(O)COc2ccc(C(C)=O)cc2)CC1 (configuration not stated)	-1.3%
CN1CCc2nc(SCCOc3ccccc3)c(C#N)cc2C1	-6.2%
O=C(Nc1ccc2c(c1)OCO2)c1cnc(Cl)c(Cl)c1	4.0%
Cc1c(Cl)cccc1NC(=O)CC(Cc1ccccc1)C(=O)O (configuration not stated)	-16.2%
CCCc1cc(=O)oc2cc(OCC(=O)Nc3cc(C)on3)ccc12	7.4%
Cc1ccc(NC(=O)O/N=C/c2c(C)nn(C(C)(C)C)c2C)cc1Cl	-9.9%
CCOc1ccc(CCNC(=O)c2nn(C)c3c2CSc2ccc(C)cc2-3)cc1OCC	4.5%
N#CC(C#N)=C(Nc1ccc(F)cc1)SCc1cccc(F)c1	-24.0%
COc1ccc2nc(NC(=O)CSc3n[nH]c(N)n3)sc2c1	-3.2%
O=c1[nH]nc(Sc2ncnc3sccc23)n1CCc1ccccc1	1.4%
Cc1ccccc1N1CCN(S(=O)(=O)c2nnc(NC(=O)CC(C)C)s2)CC1	7.3%
CCN(CC(=O)NCc1cccs1)C(=O)CCC(=O)c1ccc(F)cc1	-4.5%
CC(C)C(=O)Nc1nnc(SCC(=O)NCC2CCCO2)s1 (configuration not stated)	0.6%
O=C(O)/C=C/c1ccc(S(=O)(=O)NCc2cccnc2)cc1	?
O=C(O)CC(c1ccccc1)N1C(=O)c2cccc([N+](=O)[O-])c2C1=O (configuration not stated)	-3.2%
CC1CCN(Cc2cc(=O)oc3ccc4ccccc4c23)CC1	-2.3%
COC(=O)c1ccc(CNC(=O)COC(=O)C23CC4CC(CC(C4)C2)C3)cc1	-21.6%
COCC(=O)Nc1ccc(S(=O)(=O)Nc2nccs2)cc1	-14.7%
CN(C)CC(CCCCC(CN(C)C)C(=O)c1ccccc1)C(=O)c1ccccc1 (configuration not stated)	-14.8%
CON(C)C(=O)CCN(Cc1ccccc1)C(=O)OC(C)(C)C	-12.8%
Cc1c(C(=O)Nc2ccncc2)oc2c1C(=O)CC(C)(C)C2	20.9%
Cc1cccc(NS(=O)(=O)c2cccc(C(=O)NCC(c3ccco3)N3CCCCC3)c2)c1 (configuration not stated)	-2.9%
C/C(CCc1ccc2c(c1)OCO2)=N\NC(=O)c1ccccc1	9.6%
CC(=O)Nc1ccc(NC(=O)Cc2ccc(-c3ccccc3)cc2)cc1	2.7%

An excerpt of these results, in markdown:
| structure | VDR inhibitor |
| --- | --- |
| CC1CCN(Cc2cc(=O)oc3ccc4ccccc4c23)CC1 | -2.3% |
| COC(=O)c1ccc(CNC(=O)COC(=O)C23CC4CC(CC(C4)C2)C3)cc1 | -21.6% |
| COCC(=O)Nc1ccc(S(=O)(=O)Nc2nccs2)cc1 | -14.7% |
| CN(C)CC(CCCCC(CN(C)C)C(=O)c1ccccc1)C(=O)c1ccccc1 (configuration not stated) | -14.8% |
| CON(C)C(=O)CCN(Cc1ccccc1)C(=O)OC(C)(C)C | -12.8% |
| Cc1c(C(=O)Nc2ccncc2)oc2c1C(=O)CC(C)(C)C2 | 20.9% |

Continuation.
SMILES	VDR inhibitor
COc1ccc(NS(=O)(=O)c2ccc3[nH]c4c(c3c2)CCCC4)c(OC)c1	18.9%
Cc1ccc(S(=O)(=O)NC2=NCN(Cc3cccnc3)CN2)cc1	6.3%
Clc1ccccc1CSC1=NCCCN1	-8.7%
Cc1ccc(C(=O)OC/C(O)=C(\C#N)c2nc3ccccc3[nH]2)cc1S(=O)(=O)N1CCOCC1	-5.5%
CCC1CCCCN1C(=S)NC(=O)c1ccc(F)c(S(=O)(=O)N2CCOCC2)c1 (configuration not stated)	-25.4%
C[C@@](N)(C(=O)O)[C@@H]1C[C@@H]1C(=O)O	-0.2%
CCCCOc1ccc(C(=O)Nc2ccc3c(c2)N(C(C)=O)CCC3)cc1	3.2%
COc1cccc(-n2c(=O)c3c(C)c(C)sc3n(CC(=O)NCc3ccccc3)c2=O)c1	15.8%
